# Vaccinia Venus: qHTS for Stage-Specific Inhibitors of Vaccinia Orthopoxvirus: Venus Reporter Primary qHTS. 0.46% of 330,000 active. Vaccinia virus Venus reporter expression, fluorescence. AID 720580, 2013. Potency, µM (series often up to 36.5 µM), without a hit: top-dose activity change, negative = inhibition, hits mostly inhibitors; active means well fitted inhibition curve with a large enough effect; inconclusive means small, poorly fitted or top-dose-only effect; inactive means no such curve, though single readings can be large or run the other way; tested in A549 cells; note: nearly all actives have a fitted effect of over 30% in size; inactives centre near -10
# VACV mCherry inh: qHTS for Stage-Specific Inhibitors of Vaccinia Orthopoxvirus: mCherry Reporter Primary qHTS; 0.63% of 310,000 active; Vaccinia virus mCherry reporter infection, fluorescence; about a quarter of the inactives have no number; Potency, µM (series often up to 36.5 µM), without a hit: top-dose activity change, negative = inhibition, most hits filed as inhibitors; active = well fitted inhibition curve with a large enough effect; inconclusive = small, poorly fitted or top-dose-only effect; inactive = no such curve, though single readings can be large or run the other way; tested in A549 cells; note: nearly all actives have a fitted effect of over 35% in size; inactives centre near -10
# An asterisk follows results filed as active; i = inactive; ? = inconclusive; . = not tested or not shown; & = joins results of further samples; [ ] = another dose, or the depositor's remark. % is set by controls: 0 for no effect and ±100 for the full control effect; potency is the fitted concentration of half-maximal effect. Compounds as they come; 0.88% or so of the library scored in one or more.
# The opening 5 entries as a preview:
# Each structure is followed by: Vaccinia Venus	VACV mCherry inh
- CCc1ccc(CNC(=O)C2CCN(c3nnc(C)c4c(C)n(-c5ccc(C)cc5)nc34)CC2)cc1
  ?	?
- COc1ccc(C=C2Cc3ccccc3C2=O)cc1
  -6%	21%
- Cc1cc([N+](=O)[O-])nn1CC(=O)Nc1ccccn1
  -1%	-4%
- CCOC(=O)N1CCC(NC(=O)c2ccc3c(c2)N(Cc2ccc(C)cc2)CCS3)CC1
  -20%	13%
- CCOC(=O)CNC(=O)C1CCCN(c2ncccn2)C1 (stereo not drawn)
  -6%	-11%

# All compounds of this part (from the top)
# Each structure is followed by: Vaccinia Venus	VACV mCherry inh
- CCc1ccc(CNC(=O)C2CCN(c3nnc(C)c4c(C)n(-c5ccc(C)cc5)nc34)CC2)cc1
  ?	?
- COc1ccc(C=C2Cc3ccccc3C2=O)cc1
  -6%	21%
- Cc1cc([N+](=O)[O-])nn1CC(=O)Nc1ccccn1
  -1%	-4%
- CCOC(=O)N1CCC(NC(=O)c2ccc3c(c2)N(Cc2ccc(C)cc2)CCS3)CC1
  -20%	13%
- CCOC(=O)CNC(=O)C1CCCN(c2ncccn2)C1 (stereo not drawn)
  -6%	-11%
- CC(Sc1ccc([N+](=O)[O-])cn1)C(=O)Nc1nccs1 (stereo not drawn)
  ?	?
- CCCCN(C)C1CCN(C(=S)Nc2cccc(SC)c2)CC1
  -1%	-9%
- O=S(=O)(NCCc1nnc2ccc(SCc3ccc(Cl)cc3Cl)nn12)c1ccccc1
  -21%	-29%
- Cc1cc(C)c(S(=O)(=O)Nn2cnnc2)c(C)c1
  -13%	i
- O=C(Nc1ccccc1C(F)(F)F)c1ccc(F)c(S(=O)(=O)N2CCOCC2)c1
  -18%	-3%
- CCc1ccc(NC(=O)CNC(=O)Cn2ccc3ccccc3c2=O)cc1
  0%	i
- Cc1ccc(-c2ccc(=O)n(CC(=O)N3CCC4(CC3)OCCO4)n2)cc1
  -16%	-3%
- COc1ccc(-n2c(C)nc3c(cnn3-c3ccc(C)c(C)c3)c2=O)cc1Cl
  6%	8%
- O=C(CSc1ccccc1)NNC(=O)c1ccccc1O
  2%	?
- CCCCn1c(=O)nc2n(-c3ccccc3C)c3ccccc3cc-2c1=O
  2%	-14%
- N=c1ccn2c(n1)OC1C(O)C(CO)OC12 (stereo not drawn)
  ?	28µM*
- COc1ccc2ccccc2c1CNC(=O)CC1C(=O)NCCN1CC(C)C (stereo not drawn)
  3%	-24%
- COc1ccc([C@H]2C[C@@H](O)[C@H](n3cc(COC(=O)c4ccccc4)nn3)CN2CC2CCCCC2)cc1
  ?	-14%
- Cc1ccc(OCC(=O)N/N=C/c2cccn2C)cc1
  -8%	-14%
- Cc1cc(NC(=O)CSCC(=O)Nc2cc(C(F)(F)F)ccc2N2CCCC2)no1
  -11%	-15%
- O=C(N/N=C/c1ccc([N+](=O)[O-])o1)c1ccncc1
  4%[7.34 µM]	i[7.34 µM]
- Cc1csc2nc(COc3ccccc3NC(=O)c3ccccc3Cl)cc(=O)n12
  -13%	-21%
- CC(C)COC(=O)N1CCN(S(=O)(=O)c2ccc3c(c2)CCC3)CC1
  -1%	-20%
- CN1C(=O)c2ccccc2Cc2c(NCc3ccccc3)ncnc21
  -21%	i
- CC(C)Oc1cc(F)ccc1-c1cc(C(=O)Nc2ccc(C(C)C)cc2)[nH]n1
  -20%	?
- Cc1ccc(Cl)cc1NC(=O)Cn1c(=O)cc(C)c2c(C)nn(C)c21
  -19%	-28%
- CC(NC(=O)c1ccccc1F)C(=O)O (stereo not drawn)
  -8%	i
- Cc1ccc(NC(=O)c2ccc(NCC3CCCO3)c([N+](=O)[O-])c2)cc1Cl (stereo not drawn)
  -18%	.
- Cc1cc(=O)oc2c3c(cc(OCC(=O)Nc4ccc(CCO)cc4)c12)OC(C)(C)CC3
  -10%	-4%
- O=C(COC(=O)c1ccccc1)Nc1ccc(Cl)cn1
  -7%	i
- CCc1nnc(NC(=O)C2CC(=O)N(c3ccc4c(c3)OCCO4)C2)s1 (stereo not drawn)
  -7%	-15%
- CCC1CSC(Nc2ccc(C(=O)/C=C/c3ccc(Br)cc3)cc2)=N1 (stereo not drawn)
  -24%	-18%
- CSc1ccc(CN2C(=O)C(C)Oc3c(C(C)=O)cccc32)cc1 (stereo not drawn)
  -30%	i
- COCCNC(=O)C1(C)CCCN(C(=O)c2ccc(N(C)C)cc2)C1 (stereo not drawn)
  -14%	-8%
- Cn1cccc([N+](=O)[O-])c1=O
  -6%	-14%
- CC(CC(=O)NC(C)c1ccc2c(c1)OCCO2)c1ccccc1 (stereo not drawn)
  -6%	-28%
- O=[N+]([O-])/C=C/c1cn(Cc2ccc(Cl)cc2)c2ccccc12
  ?	i
- Cn1c(=O)c(-[n+]2ccccc2)c([O-])c2ccccc21
  2%	.
- COc1ccc(OC)c(S(=O)(=O)n2cnc3ccccc32)c1
  -11%	-4%
- Fc1ccccc1NC(=S)N1CCN(C/C=C/c2ccccc2)CC1
  -19%	-15%
- COc1cc(=O)n2c(c1C(=O)N(C)Cc1ccsc1)CCN(Cc1c(C)nn(C)c1Cl)CC2
  -2%	-9%
- Cc1cccc(S(=O)(=O)C(C#N)c2nc3ccccc3nc2N2CC(C)OC(C)C2)c1 (stereo not drawn)
  -8%	-22%
- Cc1ccccc1C(=O)N1CCC2CC1c1cc(Cl)ccc12 (stereo not drawn)
  -15%	i
- O=C(CCCn1c(=O)c2cccn2c2ccc(F)cc21)NCc1ccc(Cl)cc1
  -4%	-5%
- O=S(=O)(c1ccccc1)n1c(C(O)c2ccccn2)cc2ccccc21 (stereo not drawn)
  -8%	-9%
- Cc1ccc(S(=O)(=O)N(CC(O)CN2C(=O)NC(C)(C)C2=O)c2ccccc2)cc1 (stereo not drawn)
  -7%	.
- Cc1ccc(N2C(=O)c3ccccc3C2=O)cc1
  4%	-2%
- CCOc1ccccc1N1CCN(Cc2ccco2)CC1
  -5%	i
- CCOC(=O)c1c(CSc2cccs2)n(C)c2cc(Br)c(O)c(CN(C)C)c12
  ?	-29%
- CCCCCCCCN1C(=O)[C@H](CC(=O)NCCc2ccccc2OC)C[C@@]2(C(=O)OCC)CCCC=C12
  -18%	-13%
- COc1ccc(OC)c(CCNC(=O)CC2(CC3=NS(=O)(=O)c4ccccc4N3)CCCC2)c1
  -11%	1%
- Cc1nc(N2CCOCC2)c2c(C(=O)N3CCN(c4cccc(C)c4C)CC3)c(C)oc2n1
  -15%	-9%
- CCOC(=O)C1(CC2CC2)CCN(Cc2cn(C)c3ccccc23)CC1
  -22%	-18%
- CCO[C@@H]1OC(C(=O)NCc2nc3ccccc3[nH]2)=C[C@H](c2csc3ccccc23)[C@H]1CCCO
  ?	-25%
- CCOc1ccccc1NC(=O)CSc1nnc2ccc(-c3cccnc3)nn12
  -14%	-21%
- CC(=O)Nc1ccc(OCCC[n+]2cccc(C(=O)[O-])c2)cc1
  -13%	-1%
- c1ccc2sc(N3CCCN(Cc4nc(-c5cnccn5)no4)CC3)nc2c1
  -17%	-21%
- COc1cccc(N(C(=O)Cn2nnc(-c3cccs3)n2)C(C(=O)NC(C)C)c2ccc(C)o2)c1 (stereo not drawn)
  ?	.
- Cc1ccccc1-n1nnnc1SCC(=O)NC1CC1
  -1%	i
- O=C(NCc1ccccc1)c1cc(C2CCCCN2C(=O)c2ccc3c(c2)CCO3)on1 (stereo not drawn)
  -6%	1%

# Further structures follow.
# Each structure is followed by: Vaccinia Venus	VACV mCherry inh
- CN(C)c1c(N)c(=O)oc2ccccc12
  -11%	-11%
- CCN1CCN(c2cc(C)c3cc(NC(=O)c4cccc(C(F)(F)F)c4)ccc3n2)CC1
  -14%	-10%
- CSc1nc2nc3c(c(=O)n2[nH]1)CN(Cc1ccccc1)CC3
  -20%	i
- CCC(C)C12CN3CCN(CC(C)(C3)C1O)C2 (stereo not drawn)
  -8%	i
- Cc1ccc(NS(=O)(=O)c2cccs2)cc1S(=O)(=O)N1CCCCCC1
  -14%	-13%
- CCN(CC)S(=O)(=O)c1ccc(N2CCOCC2)c(NC(=O)Cc2ccccc2F)c1
  -15%	-25%
- OCCC1CN(CC#Cc2ccccc2)CCN1C1CCCC1 (stereo not drawn)
  -5%	?
- C=CC[C@@H](CC(=O)OC(C)(C)C)C(=O)OC[C@@H]1CCCN1C(=O)[C@@H](CC=C)CC(=O)N[C@H](CO)Cc1ccccc1
  -15%	-9%
- Fc1ccc(NC(=S)N2CCCC2)cc1Cl
  -13%	-10%
- O=S(=O)(NCc1ccccc1)c1ccccc1NCc1ccc(Cl)cc1
  1%	-1%
- CCOc1ccc(NC(=O)CN(Cc2ccccc2)S(=O)(=O)c2ccc(Cl)cc2)cc1
  -16%	-10%
- CCOc1ccc(OCC)c(NC(=O)CN(C)S(=O)(=O)c2cnc[nH]2)c1
  -22%	.
- CCOC(=O)N1CCN(C(=O)c2ccc(Cl)c(S(=O)(=O)N3CCCC3)c2)CC1
  -17%	-7%
- Cc1cccc(-c2nnc(C(C)Nc3cccc(C(=O)NC4CC4)c3)o2)c1 (stereo not drawn)
  -16%	i
- O=C(Nc1ccc(CN2CCOCC2)cc1)c1ccc(N2CCCC2)c([N+](=O)[O-])c1
  -8%	-15%
- COc1ccccc1C(=O)Nc1ccc(S(=O)(=O)N2CCC(C)CC2)cc1
  -24%	?
- CC1CCN(C(=O)Cc2nn(C)c(=O)c3ccccc23)CC1
  ?	.
- Cc1cc(C)cc(-n2ccnc2SCC(=O)Nc2nnc(C)s2)c1
  -10%	-20%
- Cc1ccc(NC(=O)Cn2c(=O)n(CCc3ccccc3)c(=O)c3c4c(sc32)CCCC4)c(C)c1
  9%	9%
- Cc1cc(C)n2nc(SCC(=O)N3CCC(C)CC3)nc2n1
  -4%	-14%
- CCNC(=O)C1CCCN(C(=O)c2ccc(F)c(Cl)c2)CC1 (stereo not drawn)
  0%	25%
- C=CC[C@H](CC(=O)N(CCO)Cc1ccccc1)C(=O)NC[C@H](OC(=O)[C@@H](CC=C)Cc1ccc(F)cc1)c1ccccc1
  11µM*	?
- COc1cccc(C(=O)NC(=NCCc2c[nH]c3ccc(OC)cc23)Nc2nc(C)cc(C)n2)c1
  -17%	-29%
- COC(=O)c1ccccc1NC(=O)c1cc2nc(-c3ccccc3)cc(-c3ccccc3)n2n1
  3%	9%
- CCCCn1c(=O)[nH]c(=O)c2c1nc(-c1cc(Br)ccc1OC)n2C
  -3%	43%[activator]
- COc1cc(/C=C2/C=Cc3ccccc32)ccc1N(C)C
  -8%	-11%
- O=C(NCCc1ccccc1)c1ccc2c(c1)N(Cc1ccc(F)cc1)C(=O)CS2
  -17%	-3%
- CCC(C)OC(=O)C[N+](C)(C)CCOC1CC2CCC1(C)C2(C)C (stereo not drawn)
  -8%	i
- CCOC(=O)C(=CNc1ccc(NC2=NCC(C)S2)cc1)C(=O)OCC (stereo not drawn)
  ?	?
- COC(c1ccccc1)c1nnc(CCC(=O)N(C)Cc2cccc(-n3cccn3)c2)o1 (stereo not drawn)
  1%	-7%
- COC(=O)c1c(NC(=O)/C=C/c2ccc3c(c2)OCO3)sc(C)c1C
  -9%	-2%
- Cc1ccc(NC(=S)N2CCC(O)CC2)c(C)c1
  -6%	i
- Cc1ccc(N(C(=O)CNC(=O)c2ccco2)C(C(=O)NCC2CCCO2)c2ccccc2)cc1C (stereo not drawn)
  -23%	-21%
- Fc1ccc(CNCc2cccc(Br)c2)cc1
  -14%	-7%
- CCOc1ccc(C(=O)C(C)=O)c(OCC)c1
  -4%	i
- O=C(NC1CC1)c1cn(Cc2ccccc2)nc1-c1ccccc1
  -5%	-6%
- COc1ccccc1NCCC#N
  -4%	-17%
- [N-]=[N+]=NCCN1CCC(O)CCC1=O (stereo not drawn)
  1%&-8%	i
- COc1cccc(N(C(=O)c2ccco2)C(C(=O)NC2CCCC2)c2ccc(N3CCOCC3)cc2)c1 (stereo not drawn)
  23%	25%
- CC1=CC(C)(C)NC(=S)N1c1ccc(C)cc1
  -9%	-21%
- Cc1onc(-c2ccccc2Cl)c1C(=O)NCc1nc(-c2ccccc2)no1
  -30%	.
- CC1(C(=O)NCCC#N)CCN1C(=O)CC(c1ccccc1)c1ccccc1 (stereo not drawn)
  39%[activator]	25%
- CCOc1ccc(NC(=O)COC(=O)CCN2C(=O)C3CC=CCC3C2=O)cc1OCC (stereo not drawn)
  -3%	-12%
- COc1ccc(CSc2nc(O)cc(=O)n2CC(C)C)cc1F
  5%	6%
- Cc1cccc(C)c1-n1ncc(C(=O)O)c1C1CCN(C(=O)OC(C)(C)C)CC1
  4%	7%
- CC1(C)OC2CC3C4CC(F)C5=CC(=O)C=CC5(C)C4C(O)CC3(C)[C@]2(C(=O)CO)O1 (stereo partly drawn)
  -19%	-5%
- CCOc1ccc(/C=N/NC(=S)NC2CC3CCC2C3)cc1 (stereo not drawn)
  -12%	-13%
- C[C@@H]1CN([C@H](C)CO)C(=O)c2c(c3ccccc3n2C)-c2ccccc2CO[C@H]1CN(C)C(=O)NC1CCCCC1
  -29%	-13%
- CCCCN(CC)Cc1c(O)ccc2c(-c3ccccc3)cc(=O)oc12
  -2%	-8%
- Clc1cccc(N/N=C/c2ccncc2)c1
  -24%	-8%

# Source: PubChem BioAssay (National Center for Advancing Translational Sciences (NCATS))
